# TRPV1 potentiator: enhances activation of the human vanilloid receptor TRPV1; hit rate 0.02% among 320,000; potentiation, % at 8.33 µM; Q8NER1; TRPV1-expressing cells, Fluo-8 calcium influx, capsaicin EC20 potentiation; host cell line not named in the record; control for the full effect not named in the record; active means potentiation above 80%; inconclusive means 30% to 80%; inactive means below 30%; further: 0% is about no effect
# Target sequence (Q8NER1 whole entry, looked up): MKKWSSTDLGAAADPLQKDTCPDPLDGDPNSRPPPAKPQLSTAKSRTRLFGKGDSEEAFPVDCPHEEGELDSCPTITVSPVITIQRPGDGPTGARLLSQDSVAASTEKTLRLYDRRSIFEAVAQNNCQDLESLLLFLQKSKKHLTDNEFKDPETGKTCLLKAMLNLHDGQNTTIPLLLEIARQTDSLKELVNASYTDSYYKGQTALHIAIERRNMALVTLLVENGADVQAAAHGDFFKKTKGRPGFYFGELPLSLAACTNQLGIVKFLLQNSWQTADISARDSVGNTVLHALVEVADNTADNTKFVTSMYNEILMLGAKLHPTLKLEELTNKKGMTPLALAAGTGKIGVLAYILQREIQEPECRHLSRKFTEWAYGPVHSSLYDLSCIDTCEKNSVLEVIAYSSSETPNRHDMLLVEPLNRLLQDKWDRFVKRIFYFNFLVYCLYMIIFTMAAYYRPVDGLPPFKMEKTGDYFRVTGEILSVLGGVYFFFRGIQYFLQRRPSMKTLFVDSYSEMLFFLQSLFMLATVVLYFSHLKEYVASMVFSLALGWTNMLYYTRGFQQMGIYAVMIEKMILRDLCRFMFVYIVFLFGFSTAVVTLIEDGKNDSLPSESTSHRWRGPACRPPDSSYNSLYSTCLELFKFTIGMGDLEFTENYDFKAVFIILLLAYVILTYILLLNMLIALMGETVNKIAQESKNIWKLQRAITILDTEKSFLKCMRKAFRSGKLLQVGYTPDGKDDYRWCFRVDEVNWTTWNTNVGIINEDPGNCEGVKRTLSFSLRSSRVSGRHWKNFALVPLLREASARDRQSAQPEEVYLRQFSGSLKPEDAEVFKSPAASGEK
#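 Fluo-8 calcium influx in TRPV1-expressing cells, kinetic read (ex 480/em 520 nm). Compound added and read 3 min for agonist activity, followed by capsaicin at EC20 final and 2 min further read for enhancement.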
# gsp ag: activates gsp, the McCune-Albright syndrome mutation. hit rate 0.13% among 340,000. AID 624287. Potency, µM (titrated, usually from 76.9 µM), inactives show at the top dose activation (cAMP increase), usual class: activators. gsp mutant cells, cAMP HTRF, 30 min; control for the full effect not named in the record; active = well fitted activation curve with a large enough effect; inconclusive = small, poorly fitted or top-dose-only effect, or another doubt; inactive = no such curve, though single readings can be large or run the other way; cell line not stated here;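 further: phosphodiesterase inhibitor Ro 20-1724 added with compounds to block cAMP breakdown; potency means the concentration at half of the fitted maximal effect; nearly all actives have a fitted effect of over 60% in size; about a fifth of the inactives were tested at one dose only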
#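 Cells stably selected in G418 were plated at 2000/well, grown 16-24 hr, then given compounds in DMSO with the PDE inhibitor […] (300 uM solution added) for 30 min at 37C; cAMP was read by HTRF.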
# Menin MLL FP FL: menin-MLL binding inhibition, fluorescein peptide. Fluorescence polarization, fluorescein-MLL peptide displacement from menin. FP activity change, % at 61.4 µM. 290,000 tested, under 10 active; inconclusive = falling polarisation curve, or a change in total fluorescence; inactive = total fluorescence flat and polarisation flat or rising; no compound was filed as active; the % refers to the polarisation; negative = inhibition;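 further: % of control where 0% means no effect; inhibitors lower the polarisation; unlabelled MLL peptide was the positive control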
# Sfp inh: blocks B. subtilis Sfp PPTase activity; Q9F4F7; Biochemical Sfp PPTase activity, qHTS; Potency, µM, for inactives: max response, negative = inhibition, hits mostly inhibitors; hit rate 3.5% among 310,000; AID 1490; active means well fitted inhibition curve with a large enough effect; inconclusive means small, poorly fitted or top-dose-only effect, or another doubt; inactive means no such curve, though single readings can be large or run the other way;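 further: the enzyme is Sfp with the accession as filed and its product quenches rhodamine fluorescence; potency means the concentration at half of the fitted maximal effect; 0% = enzyme reaction without inhibitor and -100% = no enzyme wells; top concentration of the series not given in the record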
#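 Sfp 15 nM + cpd, 15 min RT; start w/ rhodamine-CoA 5 uM, BHQ-2-YbbR 12.5 uM (final); 50 mM Hepes pH 7.6, 10 mM MgCl2, 0.01% NP-40, 0.01% BSA; read 525/598 nm at 0 and 30 min.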
# gsp antag: gsp mutant antagonism; gsp-mutant cells, cAMP HTRF, 30 min; control for the full effect not named in the record; AID 624288; hit rate 0.4% among 340,000; Potency, µM (highest dose often 76.9 µM), without a hit: top-dose activity change, negative = inhibition, actives largely listed as inhibitors; active = falling curve of any shape with a large fitted effect; inconclusive = falling curve, mostly with a smaller effect; inactive = flat or rising curve; cell line not stated here;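 further: intracellular cAMP measured with PDE inhibitor Ro 20-1724 present during compound exposure; potency means the concentration at half of the fitted maximal effect; on the % scale 0 is the no-effect control and ±100 the full control effect; nearly all actives have a fitted effect of over 65% in size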
#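 G418-selected cells were plated in DMEM/10% FBS for 16-24 h at 37C, then treated with compounds plus the PDE inhibitor […] (300 uM solution added) for 30 min at 37C. Intracellular cAMP was measured by HTRF after 30 min lysis at room temperature.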
# ClpP mod: qHTS Assay for Activators of ClpP | purified B. subtilis ClpP, FRET peptide cleavage, 20 min | Potency, µM (doses to about 57.5 µM), inactives show top-dose activity change, negative = active | AID 651965, 2013 | hit rate 1.9% among 340,000; active = well fitted falling curve with a large enough effect; inconclusive = small, poorly fitted or top-dose-only effect; inactive = no such curve, though single readings can be large or run the other way; further: potency means the concentration at half of the fitted maximal effect; the source files actives as falling curves though it sought activators and does not explain the sign; nearly all actives have a fitted effect of over 65% in size; many hits overshoot -100%
# Target sequence (P80244 whole entry, looked up): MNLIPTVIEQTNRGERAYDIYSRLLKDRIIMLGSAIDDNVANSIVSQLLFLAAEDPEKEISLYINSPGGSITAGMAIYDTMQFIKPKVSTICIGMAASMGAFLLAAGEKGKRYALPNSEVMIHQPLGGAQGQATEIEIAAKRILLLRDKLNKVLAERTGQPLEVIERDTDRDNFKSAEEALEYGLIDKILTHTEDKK
#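 FRET quenching reversal measured ClpP activation: 10 microg/mL B. subtilis ClpP at pH 8 with the FRET-FV decapeptide, read at 430 nm after 320 nm excitation. The 20-min minus 0-min signal was scaled between DMSO/no-enzyme wells and ADEP (5.8 microM final).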
# TRPML1 inh: blocks the human TRPML1 channel; activity change, negative = inhibition, % (concentration not given with the values); Q9GZU1; TRPML1-inducible cells, Ca2+ dye fluorescence, FDSS; stronger effect = lower value; inhibition of EC80 agonist-evoked calcium signal; hit rate 0.02% among 390,000; in the data active means activity change below about -50%; inconclusive means about -30% to -50%; inactive means above about -30%;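 further: stimulus is agonist 54-4 at its EC80 concentration; on the % scale 0 is the no-effect control and ±100 the full control effect; compound concentration not given in the record; the text of the record puts the active cut at -80%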
#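 Calcium fluorescence in TRPML1-DL cells induced overnight with Tet: a 110 s read after compound pin addition, then a 110 s antagonist read after challenge with 54-4 at 4 uM final (EC80).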
# * = called active by the depositor; ? = inconclusive; / = not tested or not shown; & = joins results of further samples; [ ] = another dose, or the depositor's remark.
SMILES,TRPV1 potentiator,gsp ag,Menin MLL FP FL,Sfp inh,gsp antag,ClpP mod,TRPML1 inh
C=CCC(O)(CCN1CCCCC1)c1ccccc1 (centres undefined),6.2,-77.2%[inhibitor],-2.0,3.7%,2.1%,-1.6%,-5.4
Cc1ccc(-c2nc(SCC(=O)Nc3cc(S(=O)(=O)N4CCCCC4)ccc3Cl)n[nH]2)cc1,1.8,-11.1%,8.7,12.3%,-15.4%,0.2%,15.2
Cc1cccc(C)c1NC(=O)C(NC=O)c1ccc(Cl)cc1 (centres undefined),6.9,-5.7%,0.0,9.9%,-1.9%,1.6%,14.7
O=C(N/N=C/c1ccc(Cl)c([N+](=O)[O-])c1)C1CC1,-0.4,28.0%,1.5,7.7%,-10.7%,1.4%,0.1
COC(=O)c1ccc(/C=N/NC(=O)CC(=O)NC2CCCCC2)cc1,-1.2,0.0%[15.4 µM],-2.3,2.2%,2.0%,/,1.8
CN1CCC2(CC1)NC(=O)NC2=O,-5.8,-35.0%,1.2,12.8%,3.2%,4.1%,-1.0
CCOC(=O)c1nn(-c2ccccc2)c(C#N)c1NC(=O)c1nn(CC)cc1Br,12.8,?,-1.9,7.2%,0.7%,?,40.2
COc1ccc(NC(=O)c2cnc(NS(=O)(=O)c3ccccc3)nc2)cc1,1.2,25.1%,1.1,10.2%,-12.4%,/,2.9
CCOC(=O)C1=CN(Cc2ccco2)S(=O)(=O)N(C)C1c1ccc(C(F)(F)F)cc1 (centres undefined),/,/,/,/,-1.2%,-0.3%,23.7
Cc1ccc(NC(=O)C(=O)NCc2ccco2)c(C)c1,-2.2,-25.8%[15.4 µM],-0.4,16.2%,17.7%,/,34.0
Nc1cc(OCc2ccccc2)ccc1OCc1ccccc1,/,-43.8%[inhibitor],/,/,-8.0%,/,-4.4
O=C(O)c1ccc(COc2ccc(Cl)cc2)o1,-3.8,3.8%,0.0,6.9%,-11.3%,0.1%,-11.1
CC(=O)Nc1ccc(NC(=O)C(C)OC(=O)C(C)SCC(=O)Nc2ccc(F)cc2)cc1 (centres undefined),4.2,7.5%,/,/,1.1%,-1.4%,-0.2
COc1ccc(C(=O)NCC(O)COc2ccc(C(C)(C)C)cc2)cc1[N+](=O)[O-] (centres undefined),-8.2,/,6.2,17.1%,/,/,/
O=C(COn1nnc2ccc(C(F)(F)F)cc21)Nc1nnc(-c2ccccc2)o1,11.9,13.7%,6.9,7.2%,-0.3%,-1.0%,4.4
CC1CCC2C(=O)N(c3ccccc3OC(=O)c3ccccc3)C(=O)C2C1 (centres undefined),27.7,0.3%,0.0,1.6%,-0.5%,0.8%,4.4
O=S(=O)(c1ccc(F)cc1)N1CCN(c2ccccc2)CC1,3.8,21.3%,0.4,21.6%,15.2%,-7.6%,-23.8
COc1ccc(NC(=O)C2CCCN(S(=O)(=O)c3ccccc3)C2)c(OC)c1 (centres undefined),5.9,-19.8%,0.8,6.8%,-17.0%,0.6%,5.0
COc1ccccc1C1SCCN1S(=O)(=O)c1ccccc1 (centres undefined),/,17.4%,/,/,/,0.8%,1.4
O=C(Cc1ccccc1[N+](=O)[O-])NC1CCN(Cc2ccccc2)CC1,-18.2,-3.8%,0.3,4.8%,10.0%,-0.2%,-7.3
Cc1occc1C(=O)Nc1cc(C(F)(F)F)ccc1Cl,-10.7,-3.7%,3.5,8.4%,-4.7%,-0.1%,-15.5
N=c1ccn2c(n1)O[C@H]1[C@H](O)[C@@H](CO)O[C@H]12,-0.2,?,-2.6&-4.2,5.0%&12.3%,14.3%,0.3%,0.2
O=C1CCC(=O)N1OCCCOc1ccccc1,-11.8,?,2.1,5.6%,-5.1%,-3.1%,12.3
Cc1sc(NC(=O)CSc2nnc(N)s2)c(C#N)c1C,-6.7,-0.8%,-4.3,-19.8%,-3.4%,/,5.9
O=C(NC[C@@H]1CC[C@@H](Cc2ccc(-c3ccccc3)cc2)O1)Nc1ccc(Br)cc1,/,/,/,/,-9.5%,-1.7%,2.3
O=C(NNC(=O)c1n[nH]c(=O)c2ccccc12)c1ccc(Br)cc1,8.0,-7.2%[15.4 µM],4.2,8.1%,4.5%,/,-8.6
Cc1cnc(C(=O)Nc2nc(-c3ccccc3)cs2)cn1,-14.5,3.5%,-1.1,-28.3%,2.7%,-2.7%,12.6
CCn1c2ccc(F)cc2c2nnc(SCCN3CCOCC3)nc21,-18.4,18.4%,5.7,-2.5%,16.6%,0.5%,1.3
CC1CN(c2oc(-c3cccs3)nc2C#N)CC(C)O1 (centres undefined),1.3,-1.8%,-6.6,-0.2%,-1.0%,1.0%,3.5
O=C(NCc1ccccc1F)c1ccc(S(=O)(=O)Nc2cccc(C(F)(F)F)c2)cc1,15.8,-6.5%,5.8,14.1%,3.9%,-1.8%,-9.8
CCSc1nnc2c3cc(CC)ccc3n(C)c2n1,16.3,?,-4.6,14.1%,-5.9%,-3.1%,/
COc1cccc(C2=NOC(C(=O)Nc3cccnc3)C2)c1 (centres undefined),-7.6,28.4%,2.2,1.0%,-8.4%,-3.7%,31.6
CCCn1c(C)cc(/C=C(\C#N)C(=O)OCC(=O)Nc2cccc(OC)c2)c1C,17.8,-6.3%,3.3,-27.7%,?,229.2%,-11.8
CC1CCC(NC(=O)CCN2C(=O)C3CC=CCC3C2=O)CC1 (centres undefined),/,-16.3%,/,/,9.5%,-1.2%,11.6
CCn1c(=O)c(C(=O)CN(C)Cc2cccc(OC)c2OC)c(N)n(Cc2ccccc2)c1=O,4.9,9.5%,2.1,63.1µM*,4.9%,1.2%,3.5
N#C/C(=N\O)c1nc(-c2ccccc2)cs1,11.2&-1.4,?,-0.8&-0.6,-7.2%&7.7%,?,1.3%&0.0%,-1.3&-5.1
Cc1ccccc1-n1ccnc1SCC(=O)O,-4.1,-12.3%,4.6,4.8%,-0.1%,0.2%,64.9
OCCC1CN(Cc2cccc3nccnc23)CCN1Cc1ccc(F)c(F)c1 (centres undefined),-14.0,15.3%[15.4 µM],-2.2,15.7%,4.4%,/,-6.5
Cn1c(=O)c2c(ncn2Cc2cccc(Cl)c2)n(C)c1=O,/,?,7.1,-3.9%,8.0%,1.5%,-25.1
CCOC(=O)NC(=O)c1cn(-c2ccc(OC)cc2)c(=O)[nH]c1=O,10.1,0.7%,-11.5,7.4%,-5.2%,-4.8%,6.6
COc1ccc(/C=N/NC(=O)COc2cccc3ccccc23)c(C(=O)O)c1OC,12.5,6.7%,0.9,-8.4%,-0.7%,-7.8%,8.7
CCN(Cc1cnn(C)c1)Cc1nc(C(c2ccccc2)c2ccccc2)no1,-16.0,6.1%,-2.4,17.0%,-1.3%,0.4%,22.4
CCOC(=O)N/N=C\c1ccc(OC(=O)c2ccco2)cc1,-3.6,23.2%[15.4 µM],2.2,-13.7%,0.7%,/,-3.2
N#Cc1ccccc1NC(=O)C(=O)NCCc1csc(-c2ccc(F)cc2)n1,-18.7,/,/,/,/,-2.8%,3.6
COc1ccccc1CCC(=O)Nc1ccc2c(c1)CN(Cc1ccc(C)o1)CC2,-16.6,6.5%,/,?,-4.8%,1.5%,2.8

# One compound at a time, from the list above. Order of screens: TRPV1 potentiator | gsp ag | Menin MLL FP FL | Sfp inh | gsp antag | ClpP mod | TRPML1 inh
# CCOC(=O)N/N=C\c1ccc(OC(=O)c2ccco2)cc1 across the screens: -3.6 | 23.2%[15.4 µM] | 2.2 | -13.7% | 0.7% | / | -3.2
# CCN(Cc1cnn(C)c1)Cc1nc(C(c2ccccc2)c2ccccc2)no1 across the screens: -16.0 | 6.1% | -2.4 | 17.0% | -1.3% | 0.4% | 22.4

# Following part
SMILES,TRPV1 potentiator,gsp ag,Menin MLL FP FL,Sfp inh,gsp antag,ClpP mod,TRPML1 inh
C=CCn1c(CCNC(=O)c2cccs2)n[nH]c1=S,-4.6,?,3.3,7.94µM*,8.4%,1.3%,-6.6
COc1cccc(-c2nnc(SCC3CNC(=O)O3)n2-c2ccc(Cl)cc2)c1 (centres undefined),0.7,0.4%,4.0,7.7%,-14.1%,-5.4%,5.0
N#Cc1cc2c(nc1SCc1ccccc1)CCCC2,5.9,-16.6%,4.5,6.0%,2.9%,-5.0%,12.0
O=[N+]([O-])c1ccc2c(c1)nc1n2CCSC1,2.5,-9.8%[15.4 µM],-0.1,9.0%,-5.0%,0.5%,-17.3
COc1ccc(C(=O)c2coc3ccc(O)c(CN4CCCCC4)c23)cc1,15.9,4.6%,-0.6,5.6%,2.9%,-0.7%,9.3
CC(=O)Nc1ccc(S(=O)(=O)NC2(C(F)(F)F)NC(=O)N(Cc3ccccc3)C2=O)cc1 (centres undefined),-10.8,24.8%[15.4 µM],2.7,18.3%,21.6%,-0.7%,11.2
O=C1CNC(=S)N1C(CO)c1ccccc1 (centres undefined),?,-25.4%,3.6,-5.6%,0.9%,/,-24.7
Cc1cc(C)nc(SCC(=O)N/N=C/c2cccn2-c2ccc(O)cc2)n1,0.9,10.6%,0.7,-2.5%,-10.3%,-1.5%,-14.4
c1ccc(NN=C2c3ccccc3-c3ccccc32)cc1,/,3.3%,/,/,-23.8%,/,2.7
CCc1cc(=O)oc2cc(C)cc(OCC(=O)NCC(O)c3ccccc3)c12 (centres undefined),?,?,0.7,10.7%,0.7%,3.7%,24.3
COc1ccc(CCNC(=O)Cn2nc(C)n3nc(-c4ccccc4)cc3c2=O)cc1OC,?,8.7%,/,11.8%,-4.7%,-3.0%,21.4
Cc1cc2nc3c(nc2cc1C)CCCC3,-17.2,21.9%,-2.2,-12.1%,-10.0%,-9.6%,-5.0
Cc1ccc(OC(C)C(=O)Nc2ccc(F)cc2)c([N+](=O)[O-])n1 (centres undefined),11.2,-2.2%,/,/,-0.4%,-1.0%,28.7
S=c1[nH]ncn1/N=C/c1ccc(N2CCOCC2)cc1,11.6,1.0%,2.5,?,-19.5%,6.0%,0.6
Cc1ccc(-c2c(C)n([O-])c3c([n+]2=O)CCCCC3)cc1,23.0,1.9%,-0.8,23.1%,14.5%,-0.8%,-20.6

# Only Menin MLL FP FL, ClpP mod and TRPV1 potentiator, for two of the compounds above:
SMILES | Menin MLL FP FL | ClpP mod | TRPV1 potentiator
COc1cccc(-c2nnc(SCC3CNC(=O)O3)n2-c2ccc(Cl)cc2)c1 (centres undefined) | 4.0 | -5.4% | 0.7
N#Cc1cc2c(nc1SCc1ccccc1)CCCC2 | 4.5 | -5.0% | 5.9

# From PubChem BioAssay
